High-throughput results (PubChem BioAssay)
CBX7 inh – CBX7 chromodomain binding inhibitors, primary screen, biochemical, AlphaScreen; Chromobox protein homolog 7 (Homo sapiens), O95931; AlphaScreen His6-CBX7 / biotin-H3K27me3 peptide binding; active compounds read low; normalised signal (fraction of DMSO) (no concentration beside the values); 1.1% of 66,000 active; AID 1224903, 2016; in the data active = normalised signal below about 0.5;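 also: 100 nL library stock added to about 20 µL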
Target sequence (O95931 whole entry, looked up): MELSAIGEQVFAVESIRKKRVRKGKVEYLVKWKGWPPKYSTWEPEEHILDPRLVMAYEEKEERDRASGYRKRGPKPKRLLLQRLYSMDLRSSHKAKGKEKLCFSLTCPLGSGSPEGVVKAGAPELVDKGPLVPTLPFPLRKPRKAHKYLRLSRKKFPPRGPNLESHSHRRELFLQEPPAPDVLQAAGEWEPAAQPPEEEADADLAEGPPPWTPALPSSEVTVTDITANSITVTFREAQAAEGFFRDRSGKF
CBX7 inh z-score – recorded beside CBX7 inh, whose call it bears; z-score; measured here: z-score of CBX7 signal; some inactives read as strong as hits; reference of the scale not given here;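 same signal on another scale; lower means less binding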
* = called active by the depositor. The list is partial; rates above refer to the full screens.

SMILES	CBX7 inh	CBX7 inh z-score
CCn1c(C(=O)N2CCCC(C(=O)N3CCc4ccccc4C3)C2)cc2sccc21 (stereo not given)	0.671	-1.45
CCOc1ccc2nc(N3CCC(C(=O)Nc4ccccc4CC)CC3)sc2c1	1.04	1.79
COCCNC(=O)c1ccc2c(c1)nc(C)n2-c1ccc(Br)cc1	1.13	3.42

Three compounds from above, sorted by the value under CBX7 inh z-score, lowest first.
molecule | CBX7 inh z-score
CCn1c(C(=O)N2CCCC(C(=O)N3CCc4ccccc4C3)C2)cc2sccc21 (stereo not given) | -1.45
CCOc1ccc2nc(N3CCC(C(=O)Nc4ccccc4CC)CC3)sc2c1 | 1.79
COCCNC(=O)c1ccc2c(c1)nc(C)n2-c1ccc(Br)cc1 | 3.42
